# StopGo reporter: High Throughput Screening for Foot and Mouth Disease Virus Antivirals; Potency, µM (top dose mostly 57.9 µM), for inactives: at the highest dose signal change, negative = less light; AID 1159524, 2015; 1.2% of 410,000 active; human cells with a luciferase reporter of 2A StopGo recoding; control for the full effect not named in the record; active = well fitted falling curve with a large enough effect; inconclusive = small, poorly fitted or top-dose-only effect; inactive = no such curve, though single readings can be large or run the other way; tested in HEK293T cells; further: on the % scale 0 is the no-effect control and ±100 the full control effect; nearly all actives have a fitted effect of over 45% in size; luciferase light after 4 h
# Cruzain noTriton: qHTS Assay for Promiscuous and Specific Inhibitors of Cruzain (without detergent) | Cruzipain (Trypanosoma cruzi), P25779 | purified cruzain, Z-FR-AMC fluorescence, no detergent | Potency, µM, inactives show max response, negative = inhibition, hits mostly inhibitors | 2.3% of 200,000 active | AID 1476, 2009; active means well fitted curve in the direction sought with a large enough effect; inconclusive means small, poorly fitted or top-dose-only effect, or another doubt; inactive means no such curve, though single readings can be large; an effect the other way counts as inactive or inconclusive;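 further: plate controls were enzyme without inhibitor for no effect and buffer without enzyme for full effect; nearly all actives have a fitted effect of over 40% in size; top concentration of the series not given in the record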
# Target sequence (P25779 123-467 limits assumed): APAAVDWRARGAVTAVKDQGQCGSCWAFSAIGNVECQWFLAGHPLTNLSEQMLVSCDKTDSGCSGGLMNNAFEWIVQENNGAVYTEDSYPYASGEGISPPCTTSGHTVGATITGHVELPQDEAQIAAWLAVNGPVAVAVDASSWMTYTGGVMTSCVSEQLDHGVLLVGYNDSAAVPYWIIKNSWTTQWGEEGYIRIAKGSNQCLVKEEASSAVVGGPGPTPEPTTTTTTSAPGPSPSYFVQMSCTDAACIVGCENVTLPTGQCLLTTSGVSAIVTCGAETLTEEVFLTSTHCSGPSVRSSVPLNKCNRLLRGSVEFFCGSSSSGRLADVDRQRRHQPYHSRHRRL
#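 Purified cruzain at 1.5 nM, pre-incubated 15 min with compound at room temperature in 100 mM sodium acetate pH 5.5, 5 mM DTT, 0.00005% Triton X-100. Reaction started with 2 uM Z-FR-AMC; AMC fluorescence increase over 60 s gives rate.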
# Cruzain inh Det: qHTS Assay for Promiscuous and Specific Inhibitors of Cruzain (with detergent); 0.43% of 200,000 active; purified cruzain, Z-FR-AMC fluorescence, 0.01% Triton; Cruzipain (Trypanosoma cruzi), P25779; Potency, µM, without a hit: max response, negative = inhibition, usual class: inhibitors; active means well fitted curve in the direction sought with a large enough effect; inconclusive means small, poorly fitted or top-dose-only effect, or another doubt; inactive means no such curve, though single readings can be large; an effect the other way counts as inactive or inconclusive;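 further: plate controls were neutral wells for no effect and buffer without enzyme for full effect; nearly all actives have a fitted effect of over 40% in size; top concentration of the series not given in the record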
#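 Z-FR-AMC hydrolysis (2 uM substrate) by cruzain (1.5 nM) monitored kinetically at ex 360/em 450 nm after 15 min room-temperature compound exposure; 0.01% Triton X-100, pH 5.5, 5 mM DTT.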
# RE007 growth inh: qHTS Assay for Inhibitors of the HIV-1 protein Vpr. Potency, µM (titrated, usually from 92.2 µM), for inactives: at the highest dose activity change, negative = less growth. S. pombe RE007 Vpr strain, BacTiter-Glo ATP luminescence, 24 h; control for the full effect not named in the record. 0.21% of 360,000 active; active = well fitted falling curve with a large enough effect; inconclusive = small, poorly fitted or top-dose-only effect; inactive = no such curve, though single readings can be large or run the other way;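 further: on the % scale 0 is the no-effect control and ±100 the full control effect; nearly all actives have a fitted effect of over 50% in size; the assay follows cell death caused by Vpr and the record does not say whether a fall means rescue or toxicity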
#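 Fission yeast RE007 carrying one integrated HIV-1 vpr copy, seeded at OD 0.01 in PMG+AL medium with 23 nL pinned compound. Grown 24 h at 30 degrees; viability read by BacTiter-Glo luminescence after 5 min.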
# MARV entry inh: qHTS for inhibitors of binding or entry into cells for Marburg Virus. Potency, µM (series often up to 37.8 µM), inactives show top-dose activity change, negative = inhibition, usual class: inhibitors. 1.8% of 300,000 active. AID 540276, 2011. Marburg virus pseudotyped entry inhibition, cell reporter; control for the full effect not named in the record; about a third of the inactives were read at about 46 µM; active = well fitted inhibition curve with a large enough effect; inconclusive = small, poorly fitted or top-dose-only effect, or effect the other way; inactive = flat fitted curve, though single readings scatter; tested in HEK293 cells; about a fifth of its hits are not listed in these tables; further: on the % scale 0 is the no-effect control and ±100 the full control effect; luciferase read-out
# NS1 function inh: qHTS Assay for Inhibitors of Influenza NS1 Protein Function | Potency, µM (titrated, usually from 46.1 µM), for the others: top-dose activity, positive = more growth | S. cerevisiae slowed by influenza A NS1, growth recovery by OD600 | 0.4% of 270,000 active; further: actives are rising curves; nearly all actives have a fitted effect of over 50% in size
#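 Growth recovery, yeast-based: influenza A NS1 expressed in S. cerevisiae causes slow growth, and suppressors are detected by OD600. The parent strain without NS1 is used as positive control.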
# Lassa entry inh: qHTS for Inhibitors of binding or entry into cells for Lassa Virus; Lassa virus pseudotype entry inhibition, cell reporter; control for the full effect not named in the record; Potency, µM (series often up to 37.9 µM), without a hit: at the highest dose activity change, negative = inhibition, hits mostly inhibitors; 1.2% of 300,000 active; active means well fitted inhibition curve with a large enough effect; inconclusive means small, poorly fitted or top-dose-only effect, or effect the other way; inactive means flat fitted curve, though single readings scatter; tested in HEK293 cells; further: on the % scale 0 is the no-effect control and ±100 the full control effect; nearly all actives have a fitted effect of over 50% in size; luciferase read-out
# SARS PLpro yeast: qHTS of Yeast-based Assay for SARS-CoV PLP; S. cerevisiae expressing SARS-CoV PLpro, growth rescue; control for the full effect not named in the record; Potency, µM (series often up to 32.9 µM), without a hit: top-dose activity, positive = growth rescue; 0.19% of 330,000 active; further: 0% is about no effect; nearly all actives have a fitted effect of over 55% in size; growth read by luminescence after 48 h
# An asterisk follows results filed as active; ? = inconclusive; . = no result given; & = joins results of further samples; [ ] = remark or other dose. Unless noted, the call rests on the fitted dose curve; in most records, active means well fitted rising curve with a large enough effect; inconclusive means small, poorly fitted or top-dose-only effect; inactive means no such curve, though single readings can be large or run the other way. Potency means the concentration at half of the fitted maximal effect.
mol,StopGo reporter,Cruzain noTriton,Lassa entry inh,Cruzain inh Det,SARS PLpro yeast,MARV entry inh,NS1 function inh,RE007 growth inh
CC(C)(C)NC(=O)C(c1ccncc1)N(Cc1ccco1)C(=O)c1ccc(-c2ccccc2)[nH]1 (stereo not given),42%[activator],.,?,.,-9%,?,4%,-9%
CCCCCn1c(=NC(=O)c2ccco2)c(C(=O)OCC)cc2c(=O)n3ccccc3nc21,-1%&-4%,6%,-9%[46.1 µM],0.7%,5%,4%&6%,17%,-10%&-21%
CC(=O)Nc1ccc2c(c1)CCCC2=O,?,.,.,.,-1%,.,-4%,-12%
CCOC(=O)C1=C(C)NC(C)=C(C(=O)OCC)C1,-12%&-13%,2%,-15%,-0.1%,1%,-2%&-2%,-4%&0%,-6%
CCC(NC(=O)C1(C)CC1(Br)Br)c1ccc(C)cc1 (stereo not given),-20%,7%,0%,-3.3%,4%,-7%,-16%,1%
COc1ccc(CCn2c(=S)[nH]c3cc(C(=O)N4CCOCC4)ccc3c2=O)cc1OC,-18%,.,-16%,.,-2%,-32%[46.1 µM],.,26%
CCN(c1ncnc2c1cnn2-c1cccc(Cl)c1)C1CCCCC1,-24%,-12%,?,0.5%,.,.,.,.
COC(=O)c1ccc(C(NC(=O)OCc2ccccc2)/C(F)=C/[C@@H](C)C(=O)NCc2ccc(OC)c(OC)c2)cc1 (stereo not given in full),?,4%&3%,15µM*,-3.6%&-4.0%,-3%,?,?,-5%
COc1ccc(CC(=O)O/N=C(\N)c2cccc([N+](=O)[O-])c2)cc1,-2%,-5%,-5%[46.1 µM],-2.2%,-11%,-3%[46.1 µM],-9%,-5%
CC1=C(C(=O)OCC(C)C)C(c2ccc(OCc3ccccc3)cc2)N2C(=O)CCSC2=N1 (stereo not given),-10%,1%,?,-8.4%,.,?,.,.
CCOc1ccccc1NC(=O)C(OC(=O)c1ccc(CC)cc1)c1ccccc1 (stereo not given),-16%,3%,?,-5.4%,-29%,-9%,0%,4%
CCC(CC)C(=O)Nc1nnc(S(=O)(=O)N2CCc3ccccc32)s1,-24%&-19%,0%,16%[46.1 µM],-0.8%,13%,.,-9%,17%
CC(=O)NC1C(=O)N(CCN2CCOCC2)c2ccc(Br)cc21 (stereo not given),-20%,.,.,.,-1%,.,6%,-3%
Cc1ccc2cc(C(=O)O)c(C)nc2c1,16%,4%,3%,4.5%,10%,-1%,6%,-14%
CCC(=O)Nc1c(C)nn(C(=O)CC)c1C,-24%,-2%,9%,3.7%,1%,11%,3%,10%
CCOC(=O)c1c(NC(=O)Cn2cnc([N+](=O)[O-])n2)sc2c1CCCC2,?,5%,0%,-8.0%,-35%,?,15%,25%
O=C(NCCCN1CCCC1=O)c1c(O)nc2sccn2c1=O,-23%,.,-1%,.,-1%,10%,.,6%
Cc1[nH]c2ccccc2c1C(=O)CN1C(=O)C(=O)N(Cc2ccco2)C1=O,8%,.,2%,.,0%,18%[46.1 µM],.,4%
CC1(C)CC(=O)C=C(C(=O)N2CCCC(CCC(=O)NCc3ccccc3F)C2)O1 (stereo not given),5%,.,-2%[46.1 µM],.,1%,-9%[46.1 µM],4%,0%
Cc1ccc(C(=O)Nc2ccc(Br)c(C(F)(F)F)c2)cc1,-15%,-3%,?,-6.0%,-24%,16µM*,-77%,?
CC(=O)Nc1ccc(S(=O)(=O)N(C)CC(=O)OCC(=O)N2CCCC2=O)cc1,-8%,.,5%,.,-2%,9%,.,-8%
CCCCOC(=O)c1nc[nH]c1C(=O)OCCCC,4%,.,?,.,0%,-7%[46.1 µM],6%,-8%
NC(=O)c1c(N)sc(=S)n1CC1CCCO1 (stereo not given),8%,-5%,-1%,-2.7%,4%,-7%[46.1 µM],4%,10%
CSc1nc2cc(S(=O)(=O)N3CCOCC3)ccc2s1,8%,-2%,-9%,-0.4%,-2%,1%,-3%,1%
CC(C)(C)c1ccccc1NC(=O)C1=COCCO1,-9%,.,19%,.,0%,-2%[46.1 µM],.,-8%

# The list goes on:
mol,StopGo reporter,Cruzain noTriton,Lassa entry inh,Cruzain inh Det,SARS PLpro yeast,MARV entry inh,NS1 function inh,RE007 growth inh
CCCSc1nnc2c(n1)OC(c1sccc1C)Nc1ccccc1-2 (stereo not given),27%,-10%,28%[46.1 µM],-8.2%,.,?,.,.
Cc1cc(C)nc(SCc2nnc(SCC(=O)Nc3ccc(C)c(C)c3)n2Cc2ccco2)n1,-1%,?,?,-3.8%,2%,?,-5%,5%
Cc1occc1C(=O)N1CCC2(CC1)OCCO2,16%,-6%,12%,-2.1%,5%,?,2%,-9%
CCOc1ccc(S(=O)(=O)N(CC)CC)cc1NS(=O)(=O)c1ccc(F)c(F)c1F,23%,1%,0%,-3.3%,7%,-20%,3%,0%
CCOC(=O)C1=CN(c2cccc(F)c2)C=C(C(=O)OCC)C1c1cc(OC)c(O)c([N+](=O)[O-])c1,.,0%,?,-1.1%,4%,-17%,9%,-7%
CCC(C)NC(=O)c1ccccc1-c1nc2ccccc2[nH]1 (stereo not given),-4%,.,2%,.,2%,-24%[46.1 µM],.,-4%
C/C(=N\NC(=O)c1ccccc1)c1ccc(-n2ccnc2)cc1,24%,0%,.,-3.2%,4%,.,1%,-2%
CCOC(=O)c1c(N)sc(C(=O)Nc2ccccc2F)c1C,44%[activator],.,.,.,-1%,.,-4%,-9%
COc1cccc(C(=O)N2CCC(N3CC(C)OC(C)C3)CC2)c1 (stereo not given),-20%,9%,15%,-3.3%,-4%,-5%,2%,1%
O=C1c2c(O)cc(O)cc2OC(c2ccc(O)c(O)c2)C1O (stereo not given),.,5%&-11%,?,-8.6%&-3.0%,.,?,29%,.
O=S(=O)(Nc1nc2ccccc2nc1NCC1CCCO1)c1cccc(Cl)c1 (stereo not given),-6%,.,4%,.,-3%,-12%[46.1 µM],-2%,-1%
COc1ccc2[nH]c3c(N4CCN(Cc5ccc6c(c5)OCO6)CC4)ncnc3c2c1,?,5%,?,-7.1%,0%,?,-45%,-17%
O=c1c2ccccc2cnn1-c1ccc2ccccc2c1,?,-7%,10µM*,-5.2%,-3%,?,-48%,-28%
CC(C)OC(=O)CSc1nnc(-c2ccncc2)n1N,-4%,5%,5%,-0.6%,-2%,-4%,0%,-7%
Cc1ccc(NC(=O)N2CCc3c(sc4c3CCCC4)C2c2ccccc2)cc1F (stereo not given),4%,7.9µM*,15%[46.1 µM],-1.3%,.,.,.,.
COc1ccc(NC(=O)c2cc3cccc(OC)c3oc2=Nc2ccc(C(=O)O)cc2)cc1OC,-29%,.,?,.,2%,22%[46.1 µM],.,6%
Cc1cc(C)c(S(=O)(=O)NCc2csc(-c3ccccc3)n2)c(C)c1,8%,5%,9%[46.1 µM],-10%,.,?,.,.
Cc1cc(-c2cc(C(=O)O)c3ccccc3n2)c(C)s1,28%,.,?,.,0%,?,2%,-2%
Cc1ccc(NS(=O)(=O)c2cc(-c3n[nH]c(=O)c4ccccc34)ccc2C)cc1,-65%,?,?,-6.8%,5%,5µM*,8%,6%
O=C(NNC(=O)C1CC1)c1ccccc1[N+](=O)[O-],-5%,.,17%[46.1 µM],.,-2%,?,21%,-7%
CCC1=C(c2ccc(C)cc2)S(=O)(=O)N=C1N1CCC(C(=O)NCc2ccc(N(C)C)cc2)CC1,-6%,10%,7%[46.1 µM],-3.1%,.,.,.,.
CCC(CC)C(=O)Nc1cccc(-c2nc3cccnc3s2)c1,-13%,-14%,15%[46.1 µM],-5.4%,.,?,.,.
CC1(C)CC(NC(=O)c2ccc(Cl)c(Cl)c2)CC(C)(C)N1,-6%,.,.,.,19%,.,17%,1%
COc1ccc(S(=O)(=O)Nc2ccc(S(=O)(=O)Nc3cc(C)nc(C)n3)cc2)cc1OC,22%,.,.,.,2%,-29%[46.1 µM],4%,-12%
CCOc1cc(N2CCOCC2)c(OCC)cc1NC(=O)CSc1ncn[nH]1,-1%,.,-1%,.,-2%,5%[46.1 µM],.,-12%

# (continued)
mol,StopGo reporter,Cruzain noTriton,Lassa entry inh,Cruzain inh Det,SARS PLpro yeast,MARV entry inh,NS1 function inh,RE007 growth inh
Cc1nc2c(cnn2CCO)c(=O)[nH]1,3%,.,16%[46.1 µM],.,.,7%[46.1 µM],.,7%
CC(C)Cn1c(/C=C/c2ccccc2)nc2ccccc21,-4%,-6%,-6%,-22%,?,?,-39%,?
O=C(Nc1nccs1)c1ccc(-c2cccc([N+](=O)[O-])c2)o1,18%,.,?,.,2%,?,.,-21%
Cc1cc(NC(=O)c2cn(C3CCCCC3)c(=O)c3c2c2ccccc2n3C)no1,?,21%,.,5.9%,-8%,.,0%,6%
CCOc1ccc(NC(=O)c2oc3ccccc3c2NC(=O)C(C)Oc2ccccc2)cc1 (stereo not given),-7%,32µM*,-4%[46.1 µM],-4.8%,.,?,.,.
CC(C)N(Cc1ccccc1)C(=O)C1CCCN(c2ncnc3c2nc2n3CCCCC2)C1 (stereo not given),?,.,.,.,-3%,.,-41%,-1%
CCOC(=O)c1c(NC(C)=O)sc2c1CCC(C=O)=C2Sc1ccccc1,?,-26%,?,-5.1%,3%,?,-2%,1%
O=C(NCC(=O)N(Cc1ccco1)C(C(=O)NC1CCCC1)c1ccncc1)c1cccs1 (stereo not given),9%,-1%,?,0.2%,8%,-1%,-8%,32%
CCCOC(=O)Cc1c(O)c2ccccc2[nH]c1=O,-10%,-6%,1%,1.5%,0%,?,0%,-16%
Cc1ccc(C)c(NC(=O)C2CC(=O)N(C(C)C)C2)c1 (stereo not given),-13%,1%,6%,-0.9%,-5%,-18%,2%,20%

# Assay outcomes deposited in PubChem by National Center for Advancing Translational Sciences (NCATS).
